Assay outcomes from PubChem.
Calb FLC: C. albicans growth inhibition with fluconazole, primary screen, CaCi-2 strain, Alamar Blue fluorescence | AID 1979, 2009 | C. albicans CaCi-2 (fluconazole-resistant clinical isolate) + fluconazole, 48 h | growth inhibition, % (concentration not given with the values) | actives 0.57% (n = 300,000);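 active = most replicates above 75%; inconclusive = exactly half above 75%; inactive = most below 75%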;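 also: all wells also contain fluconazole at 8 µg/ml as a sub-toxic cotreatment; 0% = median of DMSO wells and 100% = median of geldanamycin control wells; wells of about 8 µL received 7.5 nL stock; the first replicate is given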
rRNA inh HTS: reduced GFP signal of wild-type E. coli, primary screen, bacterial rRNA inhibitor project, GFP/RFP fluorescence, OD600, single point; E. coli WT GFP vs humanized-ribosome RFP mutants, 24 h; stronger effect = lower value; DMSO median 0, no signal -100; GFP signal change (wild-type ribosome), % (test concentration not listed); actives 1.6% (n = 350,000);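 active = significant combined selectivity score with lowered wild-type GFP, culture density cut under 30%, mutant RFP and density less affected; inactive = any of these conditions unmet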; also: one replicate is shown; some compounds called inactive have numbers as strong as hits
ALR H2O2 inh: inhibitors of human ALR sulfhydryl oxidase, primary screen, biochemical, H2O2 detection, HRP-luminol luminescence, single point. AID 485317, 2010. inhibition, % (no concentration beside the values). FAD-linked sulfhydryl oxidase ALR (Homo sapiens), P55789. actives 3.8% (n = 290,000). purified ALR, DTT oxidation;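 active = mean and each replicate at 75% or more; inconclusive = only one of the two met; inactive = neither met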;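 also: stock transfer was 7.5 nL into about 7.5 µL; 0% = neutral wells and 100% = wells with inactivated enzyme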
Target sequence (P55789 whole entry, looked up): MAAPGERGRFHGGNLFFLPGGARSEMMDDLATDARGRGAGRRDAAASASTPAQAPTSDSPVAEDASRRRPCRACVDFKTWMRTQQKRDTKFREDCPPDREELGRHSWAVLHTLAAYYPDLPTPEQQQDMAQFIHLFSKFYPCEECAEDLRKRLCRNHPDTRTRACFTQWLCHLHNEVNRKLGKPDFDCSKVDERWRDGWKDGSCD
FGF22 binding: binders of human FGF22 protein, primary screen, FGF22 synaptogenesis inhibitor project, biophysical, thermal shift, single point. recombinant FGF22 thermal shift, SYPRO orange fluorescence; percent of sucrose octasulfate shift, DMSO zero. calls only at 9.99 µM. actives 1.5% (n = 340,000);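 active = melting point raised past a set limit in the mean and every replicate; inconclusive = no clear call; three in four hits are not shown here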
Target sequence (Q9HCT0 whole entry, looked up): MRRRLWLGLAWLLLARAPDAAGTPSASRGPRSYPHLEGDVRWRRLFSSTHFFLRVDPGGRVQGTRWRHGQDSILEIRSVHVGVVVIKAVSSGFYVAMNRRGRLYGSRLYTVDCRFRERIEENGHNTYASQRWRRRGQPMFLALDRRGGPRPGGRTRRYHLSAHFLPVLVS
RanGTP-Imp inh: inhibitors of RanGTP-importin-beta interaction, primary screen, biochemical, FRET, CFP-Ran, YFP-importin-beta, homogeneous; cell-free CFP-Ran/YFP-importin-beta FRET ratio; inhibition, % (concentration not given with the values); actives 1.1% (n = 300,000); AID 2216, 2009;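 active = most replicates above 15%; inconclusive = exactly half above 15%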;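 also: 0% = DMSO wells and 100% = Ran loaded with GDP instead of GTP; wells of about 40 µL received 100 nL stock; the first replicate is given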
Beta apoptosis: inhibitors of cytokine-induced beta cell apoptosis, primary screen, luminescence. protection from apoptosis, % (test concentration not listed). actives 0.8% (n = 300,000). AID 435005, 2010. INS-1E cytokine-induced death, ATP luminescence, 48 h; percent of positive-control rescue, neutral wells zero;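 active = all replicates at 75% or more, or half of them and the mean; inconclusive = half reach 75% but not the mean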;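 also: 0% = cytokine-treated negative control wells and 100% = positive control rescue; higher means more ATP so stronger rescue from cytokine killing; wells of about 40 µL received 100 nL stock; the first replicate is given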
T cruzi inh: inhibitors of intracellular T. cruzi growth, primary screen, luminescence, NIH3T3 host cells; T. cruzi beta-gal in NIH3T3, 90 h; inhibition, % (test concentration not listed); actives 1.4% (n = 300,000); AID 1885, 2009;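 active = mean inhibition across valid replicates above about 55%, limit read from the data; inconclusive = mean below that limit but half or more replicates reach it; inactive = mean below it, under half of replicates reach it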;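 also: signal also drops with host cell toxicity which is not excluded here; 0% = plate median of DMSO wells and 100% = zero luminescence signal; higher percent means less beta-gal luminescence so fewer parasites; stock transfer was 50 nL into about 50 µL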
AF4-AF9 inh: inhibitors of AF4 peptide binding to AF9, primary screen, biochemical, AlphaScreen, biotin-AF4 peptide, FLAG-AF9, single point. inhibition, % at 10 µM. Protein AF-9 (Homo sapiens), P42568. AID 651704, 2012. actives 0.47% (n = 350,000);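 active = every replicate reaching a set inhibition limit, whatever the replicate mean, cut at about 25% in these data; inconclusive = mean inhibition reaches that limit but some replicates miss it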;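 also: 0% = plate neutral control median and 100% = total signal loss; the record names both 10 and 1 µM as test concentration; the first replicate is given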
Target sequence (P42568 whole entry, looked up): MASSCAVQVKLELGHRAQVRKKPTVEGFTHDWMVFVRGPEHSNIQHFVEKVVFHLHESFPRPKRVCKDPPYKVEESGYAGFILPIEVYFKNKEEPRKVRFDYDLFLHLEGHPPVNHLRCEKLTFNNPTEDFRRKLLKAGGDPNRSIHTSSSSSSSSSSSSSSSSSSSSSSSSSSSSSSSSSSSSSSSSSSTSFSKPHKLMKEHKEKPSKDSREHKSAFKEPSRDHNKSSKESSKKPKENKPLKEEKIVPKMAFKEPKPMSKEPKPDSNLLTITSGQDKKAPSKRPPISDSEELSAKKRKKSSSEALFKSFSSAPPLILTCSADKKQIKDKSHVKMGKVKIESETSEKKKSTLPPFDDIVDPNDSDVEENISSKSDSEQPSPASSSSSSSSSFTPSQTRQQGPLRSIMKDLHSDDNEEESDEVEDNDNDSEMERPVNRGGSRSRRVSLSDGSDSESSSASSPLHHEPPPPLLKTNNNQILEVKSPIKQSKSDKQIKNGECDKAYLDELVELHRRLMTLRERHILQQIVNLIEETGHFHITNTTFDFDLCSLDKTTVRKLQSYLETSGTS
rRNA inh HTS OD600: recorded beside rRNA inh HTS, whose call it bears; OD600 change, %; measured here: OD600 growth;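 optical density of the mix in the first replicate; 0 = DMSO median and -100 = no signal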
rRNA inh HTS RFP: further read-out of rRNA inh HTS, marked with its call; RFP signal change, %; measured here: RFP humanized mutant strains;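 first replicate; 0 = DMSO median and -100 = no signal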
* marks the source's active call; other numbers are inactive results; i = inactive; ? = inconclusive; · = not tested or not shown. A portion of the library; count on the stated rates, not on these rows.

SMILES | Calb FLC | rRNA inh HTS | rRNA inh HTS OD600 | rRNA inh HTS RFP | ALR H2O2 inh | FGF22 binding | RanGTP-Imp inh | Beta apoptosis | T cruzi inh | AF4-AF9 inh
COc1ccc2c(c1)c(C)cc[n+]2Cc1ccccc1 | 8 | -10 | -24 | 5.9 | -13 | i | -4.2 | -3 | 9 | 7.1
CC(C)C(=O)Nc1c(-c2ccccc2Cl)c(=O)c2ccccc2n1C | -11 | 8 | 11 | -0.6 | 11 | i | -8.0 | 1 | -10 | -3.2
COc1ccc2nc(C)cc(C(=O)O)c2c1 | -2 | · | · | · | -1 | · | -1.2 | -4 | 3 | ·
CC(C)n1c(N2CCN(C(=O)Nc3ccccc3)CC2)nc2ccccc21 | 0 | · | · | · | -2 | · | 0.7 | 8 | -11 | ·
O=C(CCN1C(=O)/C(=C/c2cccs2)SC1=S)Nc1ccc(C(=O)O)c(O)c1 | -1 | -20 | -12 | -3.3 | 79* | i | -4.6 | 5 | -14 | 6.1
CCC(C)c1ccc(NC(=O)COC(=O)c2nc3nccc(C)n3n2)cc1 (stereo not given) | -2 | -2 | -7 | -2.4 | 15 | i | -1.3 | -1 | -5 | 0.9
COc1ccc(OCC(=O)NNC(=O)C(=O)Nc2cc(OC)ccc2OC)cc1 | ? | 16 | 15 | -0.6 | -6 | i | 3.4 | -5 | -2 | 1.5
CC(C)N(Cc1nc2ccccc2c(=O)[nH]1)C(=O)c1ccc(NC(=O)CSc2nnnn2C)cc1 | · | 1 | 7 | 0.2 | -4 | i | · | 8 | · | 1.7
CCOC(=O)c1ccc(NC(=O)c2nc[nH]c2C(=O)N(CC)CC)cc1 | 12 | 8 | 4 | -2.3 | 7 | i | 0.7 | -5 | -10 | 3.6
COc1ccc(Cl)cc1NC(=O)Nc1ccccc1SC | 5 | -2 | 0 | -0.6 | -25 | i | -3.9 | 3 | -6 | 0.0
Cc1ccc2[nH]cc(CCNC(=O)C3CCCCC3)c2c1 | -1 | -7 | -3 | -1.5 | 46 | i | -0.8 | · | -7 | 4.3
O=C(CN1CCc2ccccc2C1)NCC(=O)Nc1ccc(F)cc1 | 4 | 1 | -4 | 2.1 | -7 | i | ? | -6 | -2 | -1.2
O=C(O)CNC(=S)N(Cc1ccccc1)Cc1cccnc1 | 3 | 23 | 28 | 3.3 | -3 | i | · | -2 | -8 | 0.8
Cc1cc(Cl)c(S(=O)(=O)N2CCSCC2)cc1OCC(=O)NC1CCCCC1 | -30 | · | · | · | -16 | · | 1.1 | 32 | 11 | ·
COc1ccc(C(=O)NCC(=O)N/N=C/c2ccc([N+](=O)[O-])o2)cc1OC | 11 | -11 | -2 | 2.5 | -60 | i | 4.1 | -11 | -11 | -0.5
COc1ccc(Cc2c(O)nc(SCC(C)C)[nH]c2=O)cc1 | -3 | 4 | 3 | 0.1 | 9 | i | -2.0 | · | -9 | -1.5
CNC(=S)N1N=C(c2ccc(C)cc2)CC1c1cc(OC)ccc1OC (stereo not given) | -21 | -2 | -6 | -2.4 | 0 | · | 1.6 | · | 33 | 17
CC1Sc2ccccc2N(CC(=O)N(C(C)C)C(C)C)C1=O (stereo not given) | 8 | · | · | · | -4 | · | -1.2 | -2 | 1 | ·
CCc1nnc(NC(=O)CCC(=O)N2CCN(Cc3ccc(OC)c(F)c3)CC2)s1 | -3 | 2 | 7 | -1.1 | -7 | i | 3.6 | -1 | 15 | -18
CCO[C@H]1OC(C(=O)NCc2ccccc2)=C[C@@H](c2ccccc2)[C@@H]1CCCO | 3 | -25* | -20* | 10* | 2 | i | 6.9 | -3 | -7 | 0.0
CCOC(=O)N1CCN(S(=O)(=O)c2ccc(C(=O)Nc3sc4c(c3C#N)CCC4)cc2)CC1 | 1 | 20 | 21 | 5.7 | -3 | i | 3.0 | 5 | -41 | 2.9
COc1ccccc1N1CC(C(=O)OCC(=O)c2ccc(F)cc2)CC1=O (stereo not given) | -4 | · | · | · | -5 | · | -1.2 | -5 | 8 | ·
O=C(COc1ccc(C(=O)c2ccc(F)cc2)cc1)Nc1cccc(S(=O)(=O)N2CCOCC2)c1 | · | -8 | -8 | 8.2 | -34 | i | · | -2 | · | -0.1
N#CC1=C(N)OC2=C(C(=O)CCC2)C12CCC1(CC2)OCCO1 | 7 | · | · | · | -17 | · | -3.1 | -4 | -12 | ·

The list goes on, overlapping the part above by seven compounds.
SMILES | Calb FLC | rRNA inh HTS | rRNA inh HTS OD600 | rRNA inh HTS RFP | ALR H2O2 inh | FGF22 binding | RanGTP-Imp inh | Beta apoptosis | T cruzi inh | AF4-AF9 inh
CC1Sc2ccccc2N(CC(=O)N(C(C)C)C(C)C)C1=O (stereo not given) | 8 | · | · | · | -4 | · | -1.2 | -2 | 1 | ·
CCc1nnc(NC(=O)CCC(=O)N2CCN(Cc3ccc(OC)c(F)c3)CC2)s1 | -3 | 2 | 7 | -1.1 | -7 | i | 3.6 | -1 | 15 | -18
CCO[C@H]1OC(C(=O)NCc2ccccc2)=C[C@@H](c2ccccc2)[C@@H]1CCCO | 3 | -25* | -20* | 10* | 2 | i | 6.9 | -3 | -7 | 0.0
CCOC(=O)N1CCN(S(=O)(=O)c2ccc(C(=O)Nc3sc4c(c3C#N)CCC4)cc2)CC1 | 1 | 20 | 21 | 5.7 | -3 | i | 3.0 | 5 | -41 | 2.9
COc1ccccc1N1CC(C(=O)OCC(=O)c2ccc(F)cc2)CC1=O (stereo not given) | -4 | · | · | · | -5 | · | -1.2 | -5 | 8 | ·
O=C(COc1ccc(C(=O)c2ccc(F)cc2)cc1)Nc1cccc(S(=O)(=O)N2CCOCC2)c1 | · | -8 | -8 | 8.2 | -34 | i | · | -2 | · | -0.1
N#CC1=C(N)OC2=C(C(=O)CCC2)C12CCC1(CC2)OCCO1 | 7 | · | · | · | -17 | · | -3.1 | -4 | -12 | ·
CC(=O)Nc1cccc(/C(C)=N/NC(=O)c2cc(-c3ccncc3)nc3ccccc23)c1 | -3 | 5 | 13 | 9.2 | -25 | i | 9.0 | -1 | 6 | 2.5
COc1ccc(CC(=O)OCC(=O)NNC(=O)c2ccccc2)cc1 | · | 4 | 1 | 5.9 | · | i | · | -2 | · | -2.7
CC1CC(C)CN(CCCNC(=O)Cc2c(C(=O)O)n(C)c3ccccc23)C1 (stereo not given) | -7 | 9 | 7 | 0.4 | -2 | i | 1.0 | 10 | -5 | -0.8
CCOc1ccc(S(=O)(=O)N2CCN(C(=O)c3cc4ccccc4o3)CC2)cc1 | · | -11 | -12 | 3.0 | -8 | i | · | -2 | · | 1.4
C/C(=N/NC(=O)CNc1ccc(Cl)cc1C)c1ccc(C)cc1 | -8 | 16 | 1 | 3.7 | 0 | · | 2.6 | 22 | -1 | -4.8
CNC(=O)/C(=C\c1ccc2c(c1)OCO2)NC(=O)c1ccc(Br)cc1 | 1 | · | · | · | -38 | · | -2.9 | 2 | 18 | ·
CCOc1ccc2[nH]c(=O)c(CN(Cc3nnnn3Cc3ccccc3)CC3CCCO3)cc2c1 (stereo not given) | ? | · | · | · | -47 | · | -5.7 | -5 | 14 | ·
c1ccc2[nH]c(-c3cscn3)nc2c1 | · | 1 | 11 | 0.5 | -9 | i | -5.1 | 7 | -7 | -3.1
CCN1CCc2c(sc(NC(=O)c3ccc4ccccc4c3)c2C(N)=O)C1 | · | 6 | -40 | 0.9 | 0 | i | · | 7 | 62* | 1.8
OCCNC(=S)c1ccccc1 | 4 | 10 | -9 | -5.5 | -4 | i | 1.7 | -1 | -11 | -5.8
COC(=O)c1sccc1NC(=O)CSc1ccccc1NS(=O)(=O)c1ccc(Cl)cc1 | ? | · | · | · | · | · | -3.1 | 10 | 18 | ·
O=C(O)CCCNS(=O)(=O)c1cccs1 | 3 | · | · | · | 0 | · | 2.4 | -4 | -4 | ·
CSc1ccc(C2C(C(=O)c3ccco3)=C(O)C(=O)N2c2nnc(SC)s2)cc1 (stereo not given) | 16 | 1 | -20 | 4.6 | 98* | i | -6.6 | -3 | -8 | -1.5
CCOP(=O)(c1ccc(N(C)C)cc1)C(O)c1ccccc1OC (stereo not given) | 22 | · | · | · | 17 | · | 0.8 | 3 | -1 | ·
CC12CNCC(C)(CN(C3(O)C(=O)Nc4ccc(Br)cc43)C1)C2=O (stereo not given) | -30 | 7 | 4 | 3.5 | 0 | i | -2.4 | -14 | 6 | 3.1
O=C(Nc1cccc([N+](=O)[O-])c1)c1[nH]ncc1Cl | ? | -25 | -36 | -14 | 96* | i | ? | -6 | -3 | 7.7
COc1ccc(CNC(=O)CCn2c(=O)oc3ccccc32)cc1 | 4 | · | · | · | -6 | · | 4.0 | 0 | 5 | ·
CN(C(=O)/C=C/c1ccco1)c1ccccc1C(=O)O | 2 | 10 | 19 | 8.8 | 12 | i | 0.5 | -4 | -12 | -13
COc1ccc(Nc2ccc(S(=O)(=O)N3CCCCC3)cc2[N+](=O)[O-])cc1OC | 76 | · | · | · | -16 | · | -0.6 | 18 | 11 | ·
O=C(COC(=O)c1ccco1)Nc1ccccc1 | -3 | · | · | · | -8 | · | ? | -5 | 3 | ·
O=C(CCNC(=O)c1ccc(Cl)cc1)Nc1ccc(F)cc1F | 15 | · | · | · | -9 | · | 2.0 | -5 | -2 | ·
CCC1=NN2C(=N)/C(=C\c3cccn3-c3ccc(OC)cc3)C(=O)N=C2S1 | 40 | 19 | -13 | 6.1 | 55 | i | 2.1 | 3 | -1 | 0.3
OCc1ccc2c(c1)c(-c1ccc3c(c1)OCCO3)c(-c1ccccc1)n2-c1ccccc1 | · | 7 | 12 | -11 | -5 | i | · | 5 | · | 13
O=C(CN1CCN(S(=O)(=O)N2CCOCC2)CC1)Nc1ccc(Cl)c(Cl)c1 | 5 | -5 | -19 | 0.0 | -10 | i | 1.1 | -3 | 4 | 0.6
COc1ccc2cc(C(=O)C3CCCN(C(=O)c4cc(=O)n(C)c(=O)n4C)C3)ccc2c1 (stereo not given) | 5 | -10 | -20 | -0.8 | -6 | i | 0.6 | 2 | 4 | 1.4
COC(=O)c1sc(-c2ccc(C(C)(C)C)cc2)cc1NC(=O)CSCC(=O)O | -2 | · | · | · | 98* | i | -2.0 | -6 | -3 | 1.8
COCCC(=O)N1CCC(Oc2ccc(C(=O)NCc3csc(C)n3)cc2)CC1 | -9 | 7 | 1 | 2.3 | -7 | i | -1.8 | -1 | -15 | -2.5
